PINK1 expr mod – modulators of PINK1 expression | Potency, µM (top dose mostly 76.6 µM), for the others: top-dose activation (PINK1 increase), most hits filed as activators | hit rate 0.2% among 410,000 | PINK1 immunofluorescence, high-content cytometry, 24 h; active = well fitted activation curve with a large enough effect; inconclusive = small, poorly fitted or top-dose-only effect; inactive = flat fitted curve, though single readings scatter; cell line not stated here;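 note: potency is the fitted concentration of half-maximal effect; % of control where 0% means no effect; nearly all actives have a fitted effect of over 65% in size; a mitochondrial uncoupler was the plate control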
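Compound titrations (5 concentrations, 24 h) on a stable cell line; DMSO and CCCP controls. Endpoint: fixed-cell PINK1 immunofluorescence with mitochondrial, cell and nuclear markers, scanned by microplate cytometer.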
CtBP-E1A blk – blocks the CtBP interaction with E1A; AlphaScreen GST-E1A/His-CtBP binding, 1536-well; active compounds read low; control for the full effect not named in the record; activity change, % (concentration not given with the values); hit rate 0.49% among 340,000; AID 651724; in the data active means activity change below about -65%; inconclusive means about -30% to -65%; inactive means above about -30%; note: % is set by controls: 0 for no effect and ±100 for the full control effect
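AlphaScreen with 125 nM GST-E1A and 125 nM His-CtBP (5X stocks) in Tris pH 8.0, 300 mM NaCl, BSA, Tween 20, TCEP. Compounds preincubated 2 h at 37 deg C, then glutathione donor/nickel acceptor beads added for 1 h at 37 deg C in dark.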
TRPV1 potentiator – enhances activation of the human vanilloid receptor TRPV1 | Q8NER1 | potentiation, % at 8.33 µM | hit rate 0.02% among 320,000 | TRPV1-expressing cells, Fluo-8 calcium influx, capsaicin EC20 potentiation; host cell line not named in the record; control for the full effect not named in the record | AID 540277; active means potentiation above 80%; inconclusive means 30% to 80%; inactive means below 30%; note: 0% is about no effect
Target sequence (Q8NER1 whole entry, looked up): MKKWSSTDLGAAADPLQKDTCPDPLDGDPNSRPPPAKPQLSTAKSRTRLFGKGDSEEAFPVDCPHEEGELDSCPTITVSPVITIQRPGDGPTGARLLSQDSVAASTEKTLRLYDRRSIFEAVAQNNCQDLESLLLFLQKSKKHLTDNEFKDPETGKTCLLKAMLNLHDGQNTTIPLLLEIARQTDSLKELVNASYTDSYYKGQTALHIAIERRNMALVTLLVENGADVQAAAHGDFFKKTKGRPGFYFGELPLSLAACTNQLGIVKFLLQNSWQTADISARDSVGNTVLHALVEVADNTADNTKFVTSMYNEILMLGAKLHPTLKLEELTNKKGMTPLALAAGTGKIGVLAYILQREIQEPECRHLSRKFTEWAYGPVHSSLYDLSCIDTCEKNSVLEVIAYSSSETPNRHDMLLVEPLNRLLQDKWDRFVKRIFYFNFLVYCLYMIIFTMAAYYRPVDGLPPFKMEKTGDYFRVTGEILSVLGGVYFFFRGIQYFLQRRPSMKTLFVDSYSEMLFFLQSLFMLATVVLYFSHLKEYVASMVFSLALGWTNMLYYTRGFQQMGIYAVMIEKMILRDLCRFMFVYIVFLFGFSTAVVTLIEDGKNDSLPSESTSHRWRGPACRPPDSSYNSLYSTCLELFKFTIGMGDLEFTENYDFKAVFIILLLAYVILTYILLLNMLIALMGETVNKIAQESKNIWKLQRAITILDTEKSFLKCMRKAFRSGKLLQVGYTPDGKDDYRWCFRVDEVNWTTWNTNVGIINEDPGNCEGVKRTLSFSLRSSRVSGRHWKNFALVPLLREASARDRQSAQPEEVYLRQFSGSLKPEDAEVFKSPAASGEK
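Fluo-8 calcium influx in TRPV1-expressing cells, kinetic read (ex 480/em 520 nm). Compound added and read 3 min for agonist activity, followed by capsaicin at EC20 final and 2 min further read for enhancement.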
D2 potentiator – positive allosteric modulators of human D2 dopamine receptor; AID 624464; P14416; hit rate 0.23% among 360,000; DiscoveRx D2 beta-arrestin cells, luminescence, 90 min; 100% = 57 uM dopamine signal; potentiation, % (no concentration beside the values); active = potentiation of 50% or more; inconclusive = 30% to 50%; inactive = 30% or less;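 note: compound concentration not given in the record; tested on top of an EC20 dose of dopamine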
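PathHunter D2 cells, attached overnight at 37 deg C, received compound in DMSO plus dopamine at EC20 (50 nM final) for 90 min at 37 deg C. Beta-arrestin recruitment was read as luminescence after 1 h with detection reagent at ambient temperature.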
Six1-Eya2 inh – blocks human Six1 binding to Eya2; AlphaScreen GST-Six1/His-Eya2 binding, biochemical; active compounds read low; control for the full effect not named in the record; Q15475+O00167; hit rate 0.56% among 360,000; activity change, % (no concentration beside the values); in the data active = activity change below about -65%; inconclusive = about -30% to -65%; inactive = above about -30%; note: % is set by controls: 0 for no effect and ±100 for the full control effect
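Homogeneous AlphaScreen proximity assay pairing GST-Six1 with His-tagged Eya2 (added as 5X mix: 250 nM and 500 nM) in 50 mM Tris pH 8.0, 300 mM NaCl, 1 mM TCEP. Glutathione donor and nickel acceptor beads; 1 h, 37 °C, dark.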
Sfp inh – Sfp phosphopantetheinyl transferase inhibition. Potency, µM, inactives show max response, negative = inhibition, actives largely listed as inhibitors. AID 1490. hit rate 3.5% among 310,000. Biochemical Sfp PPTase activity, qHTS; active = well fitted inhibition curve with a large enough effect; inconclusive = small, poorly fitted or top-dose-only effect, or another doubt; inactive = no such curve, though single readings can be large or run the other way;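 note: the enzyme is Sfp with the accession as filed and its product quenches rhodamine fluorescence; potency is the fitted concentration of half-maximal effect; 0% = enzyme reaction without inhibitor and -100% = no enzyme wells; top concentration of the series not given in the record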
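After 15 min at room temperature with compound, 15 nM Sfp received 5 uM rhodamine-CoA plus 12.5 uM BHQ-2-ybbR (50 mM Hepes pH 7.6, 10 mM MgCl2). Rate came from the fluorescence difference over 30 min, ex 525/em 598 nm.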
D2 agonist – activates the human D2 dopamine receptor; P14416; DiscoveRx PathHunter D2 beta-arrestin, luminescence, 90 min; 100% = 57 uM dopamine signal; activation, % (no concentration beside the values); hit rate 0.084% among 360,000; in the data active = activation above about 40%; inconclusive = about 15% to 40%; inactive = below about 15%; note: compound concentration not given in the record; the text of the record calls up to 30% inactive
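Agonist mode: compounds alone added to overnight-plated D2 PathHunter cells for 90 min at 37 C, with 57 uM final dopamine (EC100) defining full response. Beta-arrestin recruitment detected by chemiluminescent reagent, read after 1 h at ambient temperature.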
* = called active by the depositor; ? = inconclusive; · = no result given; & = joins results of further samples; [ ] = another dose, or the depositor's remark. Compounds as they come; 3.7% or so of the library scored in one or more.

SMILES | PINK1 expr mod | CtBP-E1A blk | TRPV1 potentiator | D2 potentiator | Six1-Eya2 inh | Sfp inh | D2 agonist
CC1(c2ccc(Cl)cc2)NC(=O)N(CC(=O)NCc2cccs2)C1=O (centres undefined) | 1.4% | · | -5 | -5 | 9 | 7% | -5.6
CCC(=O)N1CCc2cc(S(=O)(=O)CCC(=O)NCc3ccc(OC)cc3)ccc21 | -1.2%&0.3% | -23 | -3 | -13 | -3 | 9% | -2.9
CN(C)c1nc(OCc2ccccc2)c2ncc(=O)[nH]c2n1 | 4.3% | · | · | -21 | -2 | · | -3.3
CCC(COC)NC(=O)c1ccc(OC)c(OC2CCN(C(C)=O)CC2)c1 (centres undefined) | 8.3% | 0 | -6 | 1 | -1 | 10% | -3.8
N#Cc1cn(CC(=O)N2CCc3ccccc3C2)c2ccccc12 | -0.6% | -2 | -4 | -9 | 4 | 9% | -1.6
Cc1ccc(C(=O)N/C(=C\c2cccnc2)C(=O)N2CCCC2)cc1 | -0.9% | 0 | -2 | -3 | 8 | 3% | -5.6
CNc1nc(=S)[nH]c2ccccc12 | 0.7% | · | -1 | -10 | -8 | ? | -2.1
Cc1ccccc1CN1C(=O)CS/C1=N/N=C/c1ccco1 | -2.0% | -1 | -10 | -2 | -12 | 45µM* | -3.1
COc1cccc(Nc2ncnc3sc(C)cc23)c1 | 1.1% | · | 4 | -3 | 1 | -11% | 3.8
CC(=O)Oc1cc2c(C(=O)NCCCN3CCOCC3)c(C)oc2c2ccccc12 | 2.8% | -7 | -21 | 18 | -18 | -6% | 7.1
COc1ccc(CNC(=O)c2ccc(NS(=O)(=O)c3ccc4[nH]c(=O)[nH]c4c3)cc2)cc1OC | 0.2% | · | 0 | -1 | -10 | · | -1.3
O=C(Nc1cc(Cl)ccc1-n1cncn1)c1cc(F)cc(F)c1 | 1.8% | 1 | -5 | -4 | 5 | · | -0.1
CC(=NNC(=O)C(C)SC(C)C(=O)NN=C(C)c1cccnc1)c1cccnc1 (centres undefined) | -2.8% | 2 | · | 5 | 5 | · | 5.5
CCCn1c(SCC(=O)Nc2cc(Cl)ccc2OC)nc(O)cc1=O | -0.4% | 2 | 27 | 0 | -3 | · | 1.0
CCc1nn(-c2ccccc2)c(N)c1C#N | 3.4% | -1 | 4 | -2 | 6 | 13% | -5.4
NC(=O)CN(c1ccccc1)C1SC(=O)N(Cc2ccccc2)C1=O (centres undefined) | 4.3%[38.3 µM] | 0 | 21 | -12 | 1 | 2% | 0.0
Cc1csc(=N)n1CC(=O)N1CCc2ccccc21 | -1.5% | -4 | 10 | -12 | -1 | -9% | -3.5
Cc1ccc(NC(=O)C(C)N2C(=O)c3ccccc3C2=O)cc1 (centres undefined) | 1.7% | 4 | 5 | -10 | -2 | 6% | -4.6
CC1NC(=O)c2cccnc2-n2c1nc1cc(F)ccc1c2=O (centres undefined) | 1.7% | 3 | · | 0 | -1 | · | -4.8
Oc1ccccc1-c1nc2ccccc2nc1-c1ccccc1 | 1.6% | -9 | -33 | 3 | -14 | -2% | 1.8
CCc1cccc(Nc2cc(C)nc3ncnn23)c1 | 0.7% | 0 | -1 | -4 | -2 | 2% | -6.2
O=C(O)CCC(=O)Nc1ccc(S(=O)(=O)Nc2nccs2)cc1 | 1.0% | -3 | 3 | -3 | -7 | 13%&13%&15% | -3.8
N=c1ccn(Cc2cccc(F)c2)cc1 | -0.5% | 9 | -14 | -10 | 8 | 21% | 2.7
O=C(COc1ccccc1)Nc1ncccn1 | 0.2%[38.3 µM] | 5 | -3 | 1 | 0 | 13% | -1.2
O=[N+]([O-])c1ccc(Nc2ccc3ccccc3c2)nc1 | -3.7%[38.3 µM] | 7 | -2 | -10 | 3 | -3% | 1.7
Nc1ncc(Br)cc1Br | -1.2% | 0 | 26 | -5 | 13 | 4% | 2.0
N#Cc1c(Nc2ccccc2Cl)s[nH]c1=O | 3.4% | 9 | 13 | -15 | 51 | 4µM* | -2.5
CC12CCC(C(=O)CC1=O)C2(C)C (centres undefined) | -3.0% | 6 | · | -11 | 1 | · | -4.5
CC(C)C[C@H]1CN([C@@H](Cc2ccc(O)cc2)CN2CCC[C@@H]2CN2C(=S)NC[C@@H]2Cc2ccccc2)C(=S)N1CC1CCCCC1 | 4.3% | -13 | · | -1 | -17 | · | 3.9
COc1cc(-c2c(-c3ccc4c(c3)OCO4)noc2C)ccc1F | 7.1% | 48 | -2 | -1 | 42 | -12% | -0.5
C#CCN(C(=O)Nc1ccccc1)c1ccccc1 | 0.2% | 4 | -11 | -8 | 10 | -20% | -6.0
O=C(NC(=S)NNC(=O)[C@H]1C[C@@H]1c1ccccc1)c1ccc(F)cc1 | 5.7% | · | 19 | -21 | -10 | ? | 6.2
Cc1ccc(/C=N/NC(=O)c2cccc(NC(=O)c3ccccc3Cl)c2)o1 | 1.5% | -7 | 0 | -2 | -12 | 6% | -2.9
Cc1ccc(NC(=O)C2(C)Cc3ccccc3C(=O)O2)cc1 (centres undefined) | 0.7% | · | -14 | -5 | -2 | -12% | -4.8
Cc1ccc(C)c(Cn2c3ccccc3c3cnn(CC(=O)NCc4ccccn4)c(=O)c32)c1 | 2.7% | 0 | 6 | -6 | -1 | -23% | 2.8
Cc1cccc(C)c1NC(=O)CNC(=O)c1ccncc1 | 1.6% | -11 | -2 | 5 | -3 | 22% | 4.1
Nc1ccc(-c2nc3ccccc3o2)cc1 | 1.3% | -9 | 5 | -7 | -10 | -5% | 1.5
CCc1cc(=O)oc2cc(C)cc(OC(C)C(=O)NCc3ccncc3)c12 (centres undefined) | -0.5% | 4 | 0 | 6 | 3 | 9% | -1.4
CCCN1CCC(NC(=O)Nc2ccccc2C(=O)OC)CC1 | 4.2%[38.3 µM] | 4 | -4 | 1 | 0 | 13% | -0.6
Cc1cc(C)c(C(=O)OCc2csc(CC(=O)Nc3ccccc3C)n2)c(C)c1 | 2.1% | 8 | -2 | 0 | 7 | 15% | 2.0
COc1cc(C(=O)C(=O)c2ccc(O)c(OC)c2)ccc1O | 3.9% | · | ? | -8 | 0 | 5% | -5.6
COC(=O)Cc1[nH]nc2c1C(c1ccc(O)c(OC)c1)C(C#N)=C(N)O2 (centres undefined) | 1.5% | -18 | -9 | -4 | -7 | 8% | -4.0
COc1ccc(S(=O)(=O)N2CCc3cc(OC)c(OC)cc3C2)cc1 | -1.8% | -19 | 9 | -10 | -9 | -15% | -0.3
CCCCNC(=O)c1onc(CSc2cc(C)cc(C)c2)c1C(=O)O | 0.0% | 5 | ? | -3 | -4 | 12% | 0.9
COC(=O)c1ccc(Oc2nc(NC(C)C)nc(NC(C)C)n2)cc1 | 3.2% | 2 | 10 | 3 | 0 | 22% | -1.7

Three successive records from above, for reference:
SMILES | PINK1 expr mod | CtBP-E1A blk | TRPV1 potentiator | D2 potentiator | Six1-Eya2 inh | Sfp inh | D2 agonist
COc1ccc(S(=O)(=O)N2CCc3cc(OC)c(OC)cc3C2)cc1 | -1.8% | -19 | 9 | -10 | -9 | -15% | -0.3
CCCCNC(=O)c1onc(CSc2cc(C)cc(C)c2)c1C(=O)O | 0.0% | 5 | ? | -3 | -4 | 12% | 0.9
COC(=O)c1ccc(Oc2nc(NC(C)C)nc(NC(C)C)n2)cc1 | 3.2% | 2 | 10 | 3 | 0 | 22% | -1.7

Following part:
SMILES | PINK1 expr mod | CtBP-E1A blk | TRPV1 potentiator | D2 potentiator | Six1-Eya2 inh | Sfp inh | D2 agonist
COc1ccc(O)c(/C=N/NC(=O)c2cccc(N3CCCC3=O)c2)c1 | 14% | ? | 3 | -13 | ? | 16% | -3.9
Cc1sc(-n2c(C)cc(/C=N/n3cnnc3)c2C)c(C#N)c1C | -4.4%[38.3 µM] | 3 | 4 | -7 | -4 | 20µM* | 4.4
Cc1ccc(S(=O)(=O)NC(=O)c2ccc(Br)o2)c(C)c1 | 1.8% | 0 | 10 | -15 | 4 | 14%&17% | 0.5
Cn1nc(-c2ccc(Cl)cc2)c2cc(C(=O)NCC3CCCO3)sc21 (centres undefined) | -0.7% | ? | · | -2 | ? | -16% | 2.5
Cc1ccc(NC(=O)c2sc3nc(C)cc(C)c3c2N)cc1 | 5.3% | -5 | 3 | -8 | 6 | -5% | -2.4
COc1ccccc1OCc1csc(N)n1 | -1.1% | 0 | -6 | 15 | 16 | 14% | -1.2
Cc1cccc(NC(=O)c2ccc(OCc3c(C)noc3C)cc2)c1 | -1.0% | 7 | -19 | -28 | -1 | · | 0.4
CCC(=O)N1CCN(c2ccc(NC(=S)NC(=O)c3ccc(OC)c([N+](=O)[O-])c3)cc2)CC1 | -1.7% | 19 | 0 | -23 | -27 | -15% | -2.9
CN1CCN(NC(=O)CSc2ccc(Cl)cc2Cl)CC1 | 0.6% | 8 | -12 | -4 | 3 | 20% | -2.3
N#Cc1c(C(F)(F)F)cc(C2CC2)nc1N1CCCC1 | 8.6% | 5 | ? | -8 | 5 | -17% | 4.7
CCCc1cc(=O)[nH]c(SCC(=O)Nc2sc3c(c2C#N)CCC(C)C3)n1 (centres undefined) | 1.3% | 12 | 12 | 1 | -6 | -15% | -5.1
CCNC(=S)N/N=C1\CCCCc2ccccc21 | 0.3% | 0 | -11 | -50 | -24 | 5% | -3.4
Cc1ccccc1CSc1nnc(-c2ccncc2)o1 | 1.3% | · | -46 | -10 | 3 | 11% | -4.9

Part of the list above in another layout:
CCC(=O)N1CCN(c2ccc(NC(=S)NC(=O)c3ccc(OC)c([N+](=O)[O-])c3)cc2)CC1
  PINK1 expr mod: -1.7%	CtBP-E1A blk: 19	TRPV1 potentiator: 0	D2 potentiator: -23	Six1-Eya2 inh: -27	Sfp inh: -15%	D2 agonist: -2.9

CN1CCN(NC(=O)CSc2ccc(Cl)cc2Cl)CC1
  PINK1 expr mod: 0.6%	CtBP-E1A blk: 8	TRPV1 potentiator: -12	D2 potentiator: -4	Six1-Eya2 inh: 3	Sfp inh: 20%	D2 agonist: -2.3

N#Cc1c(C(F)(F)F)cc(C2CC2)nc1N1CCCC1
  PINK1 expr mod: 8.6%	CtBP-E1A blk: 5	TRPV1 potentiator: ?	D2 potentiator: -8	Six1-Eya2 inh: 5	Sfp inh: -17%	D2 agonist: 4.7

Screens deposited in PubChem by National Center for Advancing Translational Sciences (NCATS).
